Source: PubChem BioAssay
RGS16-Gao – regulators of human RGS16-Galphao interaction | O15492+P09471 | bead-based flow cytometry RGS16-Galphao binding, fluorescence; actives lie on both sides | binding response (% of control), % at 10 µM | actives 0.38% (n = 220,000) | AID 1441;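 active = below 25% or above 175%, edge rows of some plates excepted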;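 also: Galphao activated by GDP with aluminum fluoride before binding; 100% = wells without compound and 0% = beads without RGS; some results beyond the cut were filed as inactive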
INS promoter inh – TRM-6 insulin promoter activity inhibition; TRM-6 cells (human fetal islet line), insulin promoter-eGFP reporter, imaging; reporter expression induced with tamoxifen; inhibition, % at 2 µM; actives 0.9% (n = 130,000);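 active = inhibition above the mean plus 3 SD, with well images judged a real hit on visual review, cut at about 60% in these data, passing the limit was not always enough; inconclusive = inhibition over the cutoff but images rejected on review; inactive = inhibition not above the cutoff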
HSV replic up – increases HSV replication in cells; HSV replication augmentation in cells, fold increase; maximum fold increase; actives 0.005% (n = 220,000); AID 1956;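 active = peak rise of 1.5-fold or more in the series; inconclusive = self-fluorescent or not available for retest; tested in PC3 cells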;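 also: first round at 10 µM; read as green reporter fluorescence; hits show the peak of a series up to 25 µM; 1 = signal of infected wells without compound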
PKD1 kinase inh – blocks activity of human protein kinase D1. Q15139. PKD1 kinase fluorescence polarization assay. inhibition, %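 (about 10 µM by stock and volumes)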. actives 0.056% (n = 200,000). AID 797;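 active = inhibition of 50% or more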;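 also: controls were vehicle for no effect and a reference inhibitor for full effect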
Target sequence (Q15139 whole entry, looked up): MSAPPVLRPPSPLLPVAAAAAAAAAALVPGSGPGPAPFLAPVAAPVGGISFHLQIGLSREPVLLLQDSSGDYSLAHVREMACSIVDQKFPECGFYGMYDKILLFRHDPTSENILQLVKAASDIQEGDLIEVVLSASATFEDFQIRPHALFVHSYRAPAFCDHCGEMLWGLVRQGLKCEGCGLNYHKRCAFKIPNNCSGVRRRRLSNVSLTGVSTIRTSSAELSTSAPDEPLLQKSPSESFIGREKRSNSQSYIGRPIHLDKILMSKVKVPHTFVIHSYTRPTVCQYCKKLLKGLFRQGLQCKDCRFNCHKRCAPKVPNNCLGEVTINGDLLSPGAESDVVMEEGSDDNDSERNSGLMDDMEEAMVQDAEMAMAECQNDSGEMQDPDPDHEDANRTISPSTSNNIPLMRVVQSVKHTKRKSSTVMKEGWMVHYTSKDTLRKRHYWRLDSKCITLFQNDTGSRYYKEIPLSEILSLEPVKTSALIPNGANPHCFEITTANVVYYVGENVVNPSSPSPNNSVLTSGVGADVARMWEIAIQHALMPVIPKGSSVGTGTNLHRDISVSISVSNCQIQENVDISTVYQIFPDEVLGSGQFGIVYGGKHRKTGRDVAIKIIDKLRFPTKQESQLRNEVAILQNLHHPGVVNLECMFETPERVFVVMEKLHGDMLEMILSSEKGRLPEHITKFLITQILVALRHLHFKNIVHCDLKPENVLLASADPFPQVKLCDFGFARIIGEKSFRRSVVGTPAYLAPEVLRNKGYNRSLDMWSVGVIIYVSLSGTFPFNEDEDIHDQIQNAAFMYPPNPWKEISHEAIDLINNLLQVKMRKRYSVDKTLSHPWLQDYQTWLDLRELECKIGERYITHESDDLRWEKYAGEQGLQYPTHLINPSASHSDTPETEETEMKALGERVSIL
GALR2 agonist – activates the human galanin receptor 2; actives 0.48% (n = 140,000); GALR2-expressing cells, agonist activation read-out; O43603; AID 803; activation, %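 (tested at 5 µM)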;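 active = above mean plus 3 SD of all compounds, about 5% in these data, not always enough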;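 also: 0% = vehicle buffer wells and 100% = reference agonist at full effect; tested in CHO reporter cells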
INS promoter inh cell count – recorded beside INS promoter inh, whose call it bears; normalized cell count, %; measured here: cell count, toxicity; reference of the scale not given here;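 cells exposed to compound for 48 h; stained nuclei by imaging scaled within each plate; lower means fewer cells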
HSV replic up primary fold – recorded beside HSV replic up, whose call it bears; fold increase; compound at 10 µM; measured here: primary screen fold increase 10 uM; tested in PC3 cells;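 GFP signal in the first replicate; 1 = infected wells without compound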
* hit, by the source's call; i = inactive; ? = inconclusive; nt = no result given.

entry	Molecule	RGS16-Gao	GALR2 agonist	HSV replic up primary fold	PKD1 kinase inh	HSV replic up	INS promoter inh cell count	INS promoter inh
1	Cc1oc(-c2ccccc2Cl)nc1CN1CCCCC1CO (centres undefined)	108	nt	0.94	-5	i	83	-74
2	CCc1nc2sc(C#N)c(N)c2c2c1CCCC2	102	-0.2	0.94	0	i	137	62
3	NC(=O)c1cnn2c(C(F)(F)F)cc(-c3ccc(F)cc3)nc12	100	0.9	0.86	-11	i	34	-12
4	Cc1c(NC(=O)CSc2nnc(C(C)Oc3ccc(Cl)cc3)n2-c2ccccc2)c(=O)n(-c2ccccc2)n1C (centres undefined)	95	-1.6	0.82	-6	i	75	-18
5	Cc1ccc(C(=O)CSc2nnc(-c3c[nH]c4ccccc34)o2)cc1	96	-1.7	1.3	-9	i	107	-8
6	CCn1c(COc2ccc(C)cc2)nnc1SCc1ccc(C#N)cc1	99	-3.5	0.8	-4	i	82	26
7	Cn1c(C(=O)N2CCCC(C(=O)O)C2)cc2sccc21 (centres undefined)	147	-1.1	1	-8	i	nt	nt
8	O=C(Oc1ccccc1C(=O)Nc1ccccc1)c1ccc(Br)c([N+](=O)[O-])c1	105	-1.2	1	-7	i	110	62
9	Cc1cc(NC(=O)COc2ccc(Cl)cc2Cl)n(CCC#N)n1	93	-0.2	1.1	1	i	102	-47
10	COc1ccc(OC)c(-c2cnc(OC(C)(C)C)nc2OC(C)(C)C)c1	89	2.0	0.71	3	i	106	18
11	CCOCC(=O)OCC(=O)NC12CC3CC(CC(C3)C1)C2	101	nt	0.94	10	i	nt	nt
12	CC1(C)Nc2ccccc2C(=O)N1NC(=O)c1ccccc1	102	nt	1	2	i	145	-14

Reprinted from the part before: four compounds; new compounds follow.
entry	Molecule	RGS16-Gao	GALR2 agonist	HSV replic up primary fold	PKD1 kinase inh	HSV replic up	INS promoter inh cell count	INS promoter inh
9	Cc1cc(NC(=O)COc2ccc(Cl)cc2Cl)n(CCC#N)n1	93	-0.2	1.1	1	i	102	-47
10	COc1ccc(OC)c(-c2cnc(OC(C)(C)C)nc2OC(C)(C)C)c1	89	2.0	0.71	3	i	106	18
11	CCOCC(=O)OCC(=O)NC12CC3CC(CC(C3)C1)C2	101	nt	0.94	10	i	nt	nt
12	CC1(C)Nc2ccccc2C(=O)N1NC(=O)c1ccccc1	102	nt	1	2	i	145	-14
13	Cc1ccc(C(C)C)cc1OCC(=O)N/N=C/c1ccc2c(c1)OCCO2	44	-2.1	0.98	-4	i	75	23
14	COc1ccccc1Nc1ncnc2ccc(C)cc12	108	1.7	0.9	0	i	88	-21
15	Cc1cc(NCc2ccco2)n2c(nc3ccccc32)c1C#N	104	1.4	0.86	19	i	84	40
16	O=C(O)CCSc1ccccn1	97	nt	1.2	-3	i	nt	nt
17	O=C(O)CCC(=O)c1ccc2c(c1)OCCCO2	82	-2.4	0.98	4	i	nt	nt
18	NC(=S)Nc1ccccc1Br	95	nt	1.1	nt	i	nt	nt
19	Cc1ccc(C(=O)OCC(=O)Nc2ccc3[nH]c(=O)[nH]c3c2)cc1[N+](=O)[O-]	98	nt	1	nt	i	nt	nt
20	O=C(NCc1ccco1)c1ccc(Cn2c(=O)c3sccc3n(Cc3ccc(F)cc3)c2=O)cc1	101	-3.8	0.89	5	i	nt	nt
21	CCC(Sc1nncn1C)C(=O)Nc1ccccc1OC (centres undefined)	80	-2.8	0.93	5	i	105	-141
22	O=C(CCCn1nnc2ccccc2c1=O)N[C@@H](Cc1ccccc1)C(=O)O	100	nt	0.94	nt	i	nt	nt
23	O=C(Nc1cccc(NC(=O)c2ccco2)c1)c1ccc2c(c1)OCO2	99	-1.4	1.1	-9	i	90	48
24	COc1ccc(CC2(CO)CCN(S(=O)(=O)c3c(C)nn(C)c3Cl)CC2)cc1	115	nt	1.1	5	i	nt	nt
25	CCC1CCCCN1C(=O)Cn1c(C(=O)OC)cc2sc(Cl)cc21 (centres undefined)	90	-4.5	0.93	-5	i	90	-272
26	O=C(Nc1ccccc1Cl)c1cc(S(=O)(=O)N2CCOCC2)cs1	104	-3.2	0.97	5	i	88	-3
27	Cc1cccc(Oc2ccc(N)cc2)c1	103	-1.5	0.91	0	i	113	7
28	Cc1c(NC(=O)c2cc(-c3cccs3)nc3ccccc23)c(=O)n(-c2ccccc2)n1C	103	-2.7	0.78	15	i	165	0
29	Cn1c(NCC2CCCO2)nc2c1c(=O)n(Cc1ccccc1)c(=O)n2C (centres undefined)	114	0.2	0.89	-9	i	147	-12
30	O=C(O)CN=C1NC2(CCCCC2)Cc2ccccc21	107	-4.9	0.86	-4	i	35	-469
31	Cc1cc(C(=O)NCC(=O)OCC(=O)NCCc2ccccc2)ccc1[N+](=O)[O-]	97	nt	1.1	4	i	121	18
32	CCc1ccccc1NS(=O)(=O)c1cc(C)ccc1OC	101	0.0	0.96	1	i	90	-1
33	COCCSc1nnc(NC(=O)CSCc2ccccc2)s1	98	0.9	0.97	-3	i	191	0
34	CCOC(=O)N1CCN(C(=O)CNC(=O)Cn2cnc3ccccc3c2=O)CC1	107	nt	0.89	-4	i	125	36
35	CN(C)c1nc(=Nc2cccc(Cl)c2)ss1	88	nt	1.1	nt	i	nt	nt
36	N#CCCN(C(=O)COC(=O)C1CCN(S(=O)(=O)c2cccs2)CC1)c1ccccc1	93	nt	1	6	i	nt	nt

Entries of single compounds from above.
Shown for `Cc1c(NC(=O)c2cc(-c3cccs3)nc3ccccc23)c(=O)n(-c2ccccc2)n1C` → RGS16-Gao = 103; GALR2 agonist = -2.7; HSV replic up primary fold = 0.78; PKD1 kinase inh = 15; HSV replic up = i; INS promoter inh cell count = 165; INS promoter inh = 0
Shown for `CCC1CCCCN1C(=O)Cn1c(C(=O)OC)cc2sc(Cl)cc21` (centres undefined) → RGS16-Gao = 90; GALR2 agonist = -4.5; HSV replic up primary fold = 0.93; PKD1 kinase inh = -5; HSV replic up = i; INS promoter inh cell count = 90; INS promoter inh = -272

Entries shown so far that have a furan ring, fused or not:
entry	Molecule	RGS16-Gao	GALR2 agonist	HSV replic up primary fold	PKD1 kinase inh	HSV replic up	INS promoter inh cell count	INS promoter inh
15	Cc1cc(NCc2ccco2)n2c(nc3ccccc32)c1C#N	104	1.4	0.86	19	i	84	40
20	O=C(NCc1ccco1)c1ccc(Cn2c(=O)c3sccc3n(Cc3ccc(F)cc3)c2=O)cc1	101	-3.8	0.89	5	i	nt	nt
23	O=C(Nc1cccc(NC(=O)c2ccco2)c1)c1ccc2c(c1)OCO2	99	-1.4	1.1	-9	i	90	48

Next results follow:
entry	Molecule	RGS16-Gao	GALR2 agonist	HSV replic up primary fold	PKD1 kinase inh	HSV replic up	INS promoter inh cell count	INS promoter inh
37	CCn1ncc(CNC(=O)C2(C)CC2(Br)Br)c1C (centres undefined)	110	-0.2	nt	-2	nt	117	33
38	CC(C)(O)C(=O)NNC(=S)Nc1cccc(C(F)(F)F)c1	96	nt	1	3	i	nt	nt
39	Cc1cc(NC(=O)CSc2nnc(-c3ccccc3)n2Cc2ccco2)no1	101	-1.0	0.89	0	i	29	-29
40	Cc1nnc(-c2ccccc2)nc1N(C)C	96	nt	1	2	i	nt	nt
41	COc1ccccc1NC(=S)N=Nc1c(O)[nH]c2ccc(Br)cc12	99	nt	0.73	nt	i	nt	nt
42	CC1=NN(c2nc(-c3ccccc3)cs2)C(=O)C1N=Nc1ccccc1 (centres undefined)	101	nt	1.1	6	i	nt	nt
43	C=C(C)C1Cc2c(C)nn(-c3cc(C)c4ccccc4n3)c2C1 (centres undefined)	nt	-1.5	nt	-1	nt	85	-81
44	O=C(c1ccco1)N1CCN(C(=O)c2cc(-c3ccccn3)nc3ccc(Cl)cc23)CC1	96	-3.5	1.1	-7	i	218	-6
45	Cc1ccc(-n2nnc3c(=O)oc4ccccc4c32)cc1	100	-2.4	0.68	-7	i	117	44
46	COc1cc(C(=O)Nc2nc3ccc(S(=O)(=O)N4CCOCC4)cc3s2)cc(OC)c1OC	100	-1.3	0.73	-6	i	111	14
47	O=C(COc1ncnc2ccccc12)Nc1ccc(Cl)c(S(=O)(=O)N2CCOCC2)c1	104	nt	1.1	nt	i	nt	nt
48	COc1cccc(-c2nnc(NC(=O)Cc3cccs3)s2)c1	102	0.0	1	1	i	67	30
49	CC(C)CCn1c(SCC(=O)OCn2nnc3ccccc3c2=O)nc2ccccc2c1=O	110	0.0	0.81	4	i	150	-23
50	CCCCCC(=O)N/N=C(\C)c1ccc(N2CCCCC2)cc1	93	-0.3	nt	-4	nt	136	42
51	CC(C)OP(=O)(OC(C)C)C(Nc1ccc([N+](=O)[O-])cc1)c1cccc([N+](=O)[O-])c1 (centres undefined)	103	nt	1.1	nt	i	nt	nt
52	CC(=O)NC1C(=O)N(CCc2ccccc2)c2ccc(Br)cc21 (centres undefined)	101	-1.4	nt	2	nt	68*	72*
53	CCCCCC(=O)Nc1cccc(C2=NOC3(C2)C[C@@H](C(N)=O)N(C(=O)c2ccc(OC)cc2)C3)c1 (some centres undefined)	92	nt	1.1	nt	i	nt	nt
54	COc1ccc(Cn2c(C)c(C)c(C#N)c2NC(=O)Nc2ccc(F)cc2)cc1	102	-1.1	nt	-4	?	28	16
55	CCOc1cccc(-c2nnc3sc(C4CCCCC4)nn23)c1	111	-1.9	0.61	1	i	nt	nt
56	Cc1c(C2C(C#N)=C(N)N(c3ccccc3C#N)C3=C2C(=O)CCC3)cnn1C (centres undefined)	95	-0.2	1	-2	i	152	3
57	COC(=O)c1c(NC(=O)CC2SCC(C(=O)OC)NC2=O)sc2c1CCCC2 (centres undefined)	93	-0.8	0.84	-6	i	51	-90
58	COc1ccc(NC(=O)CCNS(=O)(=O)c2ccc(Br)s2)cc1	101	1.5	0.93	-11	i	66	7
59	Cc1ccc(C)n1NC(=O)c1ccccc1[N+](=O)[O-]	102	nt	0.99	5	i	nt	nt
60	Cn1c(N)c(C(=O)COC(=O)C2CCCCC2)c(=O)n(C)c1=O	102	-3.2	0.99	-9	i	121	25
61	COc1cc(/C=c2\sc3nc(=O)c(-c4ccccc4)nn3c2=O)ccc1OCCC(C)C	93	0.8	1	-4	i	110	18
62	COc1ccc(OC)c(-c2nc3c(C)n[nH]c(=O)c3[nH]2)c1	108	-1.8	0.83	5	i	165	23
63	C#CCSc1nnc(-c2ccc(C)cc2)o1	103	-1.7	0.96	-7	i	154	-300
64	COc1cc(C(=O)c2ccccc2)c([N+](=O)[O-])cc1OC	95	nt	1.1	nt	i	nt	nt
65	CCOc1cccc2cc(C(=O)Nc3nccs3)c(=O)oc12	83	-2.8	0.92	-7	i	nt	nt
66	CCOC(=O)c1cc(C)n(-c2ccccc2)c1C	97	nt	0.91	nt	i	nt	nt
67	Cc1ccn2c(C(=O)NN=C3CCN(C)CC3)c(C)nc2c1	101	nt	1	1	i	120	27
68	Cc1ccc(C(=O)N/N=C\c2cc(Br)c(Br)o2)cn1	99	nt	nt	nt	?	nt	nt
69	CCOC(=O)c1ccc(Nc2ncnc3nc[nH]c23)cc1	110	-2.8	0.8	-10	i	nt	nt
70	CCOC(=O)N1CCC(NC(=O)CCN2C(=O)C3C4C=CC(C4)C3C2=O)CC1 (centres undefined)	94	0.7	1.1	-20	i	nt	nt
71	c1ccc(CC2CCN(C3=Nc4cccc5cccc3c45)CC2)cc1	105	-1.2	nt	-6	nt	62	-83

This is a random part of the collection, and some 1.3% of all compounds hit somewhere here.
